Vif A3G: HIV-1 Vif–A3G interaction blockers – biochemical, TR-FRET, GST-Vif 1-94, biotin-A3G peptide, dose response retest, primary screen (AID 1117319); TR-FRET GST-Vif / biotin-A3G peptide binding; higher % means a stronger effect; test concentration not given here; strong numbers were not always called active; inhibition, %; hits with a dose series show IC50 in µM; hit rate 0.57% among 260,000;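 active means above the screen mean plus three standard deviations and confirmed in dose response; inconclusive means results disagree or hit not tested in dose response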;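 further: Vif residues 1-94 fused to GST binding biotinylated APOBEC3G peptide 110-148; 0% = full assay without inhibitor and 100% = GST in place of GST-Vif; retest series ran down from 100 µM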
Ecoli rRNA inh: inhibits bacterial ribosomal RNA function over humanized ribosomes. E. coli WT GFP vs humanized-ribosome RFP mutants, fluorescence, 24 h; stronger effect = lower value; DMSO median 0, no signal -100. GFP signal change (wild-type ribosome), % (no concentration beside the values). hit rate 1.6% among 350,000;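 active means significant combined selectivity score with lowered wild-type GFP, culture density cut under 30%, mutant RFP and density less affected; inactive means any of these conditions unmet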; further: one replicate is shown; some compounds called inactive have numbers as strong as hits
ALR H2O2 inh: inhibitors of human sulfhydryl oxidase ALR; P55789; purified ALR, DTT oxidation, H2O2 HRP-luminol luminescence; inhibition, % (test concentration not listed); hit rate 3.8% among 290,000; AID 485317;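 active means mean and each replicate at 75% or more; inconclusive means only one of the two met; inactive means neither met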;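 further: stock transfer was 7.5 nL into about 7.5 µL; 0% = neutral wells and 100% = wells with inactivated enzyme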
Target sequence (P55789 whole entry, looked up): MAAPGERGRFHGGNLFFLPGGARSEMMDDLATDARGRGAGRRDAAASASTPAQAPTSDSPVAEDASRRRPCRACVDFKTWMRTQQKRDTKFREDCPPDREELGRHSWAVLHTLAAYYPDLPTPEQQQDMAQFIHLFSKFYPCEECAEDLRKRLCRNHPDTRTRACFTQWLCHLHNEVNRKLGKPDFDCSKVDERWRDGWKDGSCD
MLL AF4-AF9 inh: blocks AF4 peptide binding to human AF9. hit rate 0.47% among 350,000. inhibition, % at 10 µM. AID 651704. AlphaScreen, biotin-AF4 peptide binding to FLAG-AF9;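 active means every replicate reaching a set inhibition limit, whatever the replicate mean, cut at about 25% in these data; inconclusive means mean inhibition reaches that limit but some replicates miss it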;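 further: 0% = plate neutral control median and 100% = total signal loss; the record names both 10 and 1 µM as test concentration; the first replicate is given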
Target sequence (P42568 whole entry, looked up): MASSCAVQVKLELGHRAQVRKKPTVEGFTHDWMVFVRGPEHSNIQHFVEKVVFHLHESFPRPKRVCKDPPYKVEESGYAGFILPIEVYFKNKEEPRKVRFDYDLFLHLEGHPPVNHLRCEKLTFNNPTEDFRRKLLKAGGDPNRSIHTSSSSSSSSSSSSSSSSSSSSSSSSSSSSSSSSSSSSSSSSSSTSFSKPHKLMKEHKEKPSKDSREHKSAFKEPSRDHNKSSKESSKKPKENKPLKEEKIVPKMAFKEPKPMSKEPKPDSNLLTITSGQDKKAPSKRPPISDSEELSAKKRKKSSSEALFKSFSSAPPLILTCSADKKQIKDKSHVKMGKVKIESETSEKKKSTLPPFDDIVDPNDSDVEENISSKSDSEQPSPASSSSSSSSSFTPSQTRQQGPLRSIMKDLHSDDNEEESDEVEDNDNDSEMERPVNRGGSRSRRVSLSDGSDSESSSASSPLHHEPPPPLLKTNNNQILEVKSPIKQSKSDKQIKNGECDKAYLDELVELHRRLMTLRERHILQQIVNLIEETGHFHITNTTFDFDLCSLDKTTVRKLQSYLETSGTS
FGF22 binding: FGF22 (human) thermal shift binding | recombinant FGF22 thermal shift, SYPRO orange fluorescence; percent of sucrose octasulfate shift, DMSO zero | calls only at 9.99 µM | hit rate 1.5% among 340,000;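 active means melting point raised past a set limit in the mean and every replicate; inconclusive means no clear call; three in four hits are not shown here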
Target sequence (Q9HCT0 whole entry, looked up): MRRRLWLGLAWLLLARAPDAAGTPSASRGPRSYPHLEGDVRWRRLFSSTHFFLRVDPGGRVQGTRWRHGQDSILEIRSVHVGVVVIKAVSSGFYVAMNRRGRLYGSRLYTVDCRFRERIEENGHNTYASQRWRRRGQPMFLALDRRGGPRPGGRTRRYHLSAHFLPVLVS
E coli growth: E. coli growth inhibition. Escherichia coli growth, OD600, 23 h; stronger effect = lower value. AID 1053175. hit rate 0.21% among 330,000. OD600 absorbance (test concentration not listed);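 active means OD600 absorbance below the run mean of sample wells minus 3.6 SD, in any replicate, cut at about 0.56 in these data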;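 further: stock transfer was 300 nL into about 60 µL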
HNF4A DNA FP: change in binding of human HNF4 alpha to DNA; HNF4a-FITC DNA binding, fluorescence polarization, 1 h; activity change, % at 10 µM; hit rate 0.3% among 360,000; in the data active means activity change above about 30%, passing the limit was not always enough;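 further: controls were the assay level and a saturating level of protein; the project sought stronger binding though the title names inhibitors; some compounds called inactive have numbers as strong as hits; positive values seem to mean higher polarization but the record does not say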
Ecoli rRNA inh OD600: recorded beside Ecoli rRNA inh, whose call it bears; OD600 change, %; measured here: OD600 growth;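 optical density of the mix in the first replicate; 0 = DMSO median and -100 = no signal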
Ecoli rRNA inh RFP: recorded beside Ecoli rRNA inh, whose call it bears; RFP signal change, %; measured here: RFP humanized mutant strains;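 first replicate; 0 = DMSO median and -100 = no signal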
Numbers without * were called inactive; i = inactive; ? = inconclusive; · = no result given.

SMILES	Vif A3G	Ecoli rRNA inh	Ecoli rRNA inh OD600	Ecoli rRNA inh RFP	ALR H2O2 inh	MLL AF4-AF9 inh	FGF22 binding	E coli growth	HNF4A DNA FP
C[C@@H]1CCCCO[C@@H](CN(C)C(=O)C2CCCCC2)[C@H](C)CN([C@H](C)CO)C(=O)c2cc(NC(=O)Cc3ccccc3)ccc2O1	·	-3	-6	3.6	·	-0.1	i	·	·
CC(=O)c1cccc(NC(=O)N2CCCC2C(=O)Nc2cccc(C)c2)c1 (centres undefined)	29%	·	·	·	-2	·	·	0.71	-7.4
CCn1c(SCC(=O)C(C)(C)C)nnc1-c1ccccc1OC	-7%	·	·	·	2	·	·	0.74	1.7
C[C@H](CO)N1C[C@H](C)[C@@H](CN(C)Cc2ccc(Oc3ccccc3)cc2)Oc2ccc(NS(=O)(=O)c3ccc(F)cc3)cc2C1=O	·	-2	-20	6.3	·	2.6	i	·	·
O=C(Nc1nnc(-c2ccncc2)o1)c1ccccc1	-4%	-35*	-27*	-9.6*	87*	0.2	i	0.7	3.2
CC(=O)N1C[C@H]2CON(C)[C@H]2C[C@H]1c1cccc(-c2ccc(C#N)cc2)c1	-9%	5	11	-0.7	·	-3.2	i	·	-7.8
O=[N+]([O-])c1ccc(OCCCn2cncn2)cc1	·	18	11	4.2	-9	-1.5	i	0.65	2.1
COC(=O)CN(c1ccccc1)S(=O)(=O)c1ccccc1	·	5	2	-7.3	-10	-41	i	0.67	1.2
CCCCN(C(=O)CCC(=O)Nc1cc(C)on1)C(C(=O)NC1CCCC1)c1cccc(OC)c1 (centres undefined)	·	18	12	6.5	-4	2.0	i	0.66	0.7
COc1cccc(C#Cc2ccc3c(c2)O[C@@H](CN(C)S(=O)(=O)c2ccccc2F)[C@H](C)CN([C@H](C)CO)S3(=O)=O)c1	·	6	4	-3.2	·	-2.7	i	·	·
S=C(Nc1ccc(-c2nc3ccccc3[nH]2)cc1)Nc1cccnc1	·	-18	7	2.1	10	-24	i	0.67	2.0
Cc1ccc(O)c(C(=O)c2cnc3c(c2)CN(C)C(=O)N3)c1	0%	·	·	·	12	·	·	0.71	-2.0
Nc1nc(CN2CCC(Cc3ccccc3)CC2)nc(Nc2ccccc2)n1	8%	·	·	·	-27	·	·	0.66	54*
O=C(Nc1ccccc1)N1CCC(n2c(=O)[nH]c3ccccc32)CC1	3%	2	-2	-3.3	-4	4.2	i	0.7	2.9
COc1ccc(N2C(=O)C3ON(C4SC(=S)N(C)C4(C)C)C(c4ccc([N+](=O)[O-])cc4)C3C2=O)cc1 (centres undefined)	17%	·	·	·	-5	·	·	0.71	4.3
O=C(Nc1ccc2c(c1)CCCN2C(=O)c1cccs1)c1c(F)cccc1Cl	6%	0	-11	0.7	-5	8.0	i	0.68	2.2
Cc1cc(C)nc(NCC(O)CNc2ccccc2C)n1 (centres undefined)	4%	·	·	·	98*	·	·	0.73	-0.6
CC(=O)c1ccc(NC(=O)CCC(=O)OCC(=O)c2cccc([N+](=O)[O-])c2)cc1	·	·	·	·	-10	·	·	0.65	1.9
CCOC1=C2CN(S(=O)(=O)c3ccc(C)cc3)[C@H](c3ccccc3)C[C@@H]2N(S(=O)(=O)c2ccc(C)cc2)[C@H](c2cccs2)C1	·	11	18	2.8	·	-1.0	i	·	2.6
CCCc1nn(C)c(C(=O)Nc2cccc(C)c2)c1Cl	-2%	3	-5	2.6	1	5.0	i	0.66	2.4
CCOC(=O)c1cnc2cc(-c3ccc(Br)cc3)nn2c1C	·	-1	15	-2.7	-17	-7.4	i	0.72	-1.9
C[C@H](CO)N1C[C@H](C)[C@@H](CN(C)Cc2ccccn2)Oc2cc(-c3cccc(C#N)c3)ccc2S1(=O)=O	·	-9	-22	-3.4	·	-1.5	i	·	·
COCc1ccc(C(=O)N2CCCC(N3CCN(c4ccc(F)cc4)CC3)C2)o1 (centres undefined)	·	-3	-3	-1.0	59	-11	i	0.73	-1.2
CC1(C(=O)NCc2ccccc2)CCC(=O)N1C1CC1 (centres undefined)	·	8	6	-2.4	·	-2.2	i	·	-0.5
CCOC(=O)c1c(CSc2cccs2)n(C)c2cc(Br)c(O)c(CN(C)C)c12	·	-58	-76	-24	99*	23	i	0.64	4.6
Cc1csc(SCC(=O)N2CCN(S(=O)(=O)c3ccc(Cl)cc3)CC2)n1	8%	·	·	·	-16	·	·	0.68	-0.6
Cc1cccc(OCCNc2cc(N3CCN(C)CC3)ccc2[N+](=O)[O-])c1	-13%	·	·	·	24	·	·	0.63	2.4
CC(C)n1c(CN2CCN(Cc3ccccc3)CC2)nc2ccccc21	-6%	-1	-10	0.6	-12	2.0	i	0.59	-2.5
Cc1nc2ccccc2n1/N=C/c1cccnc1	2%	·	·	·	-10	·	·	·	-3.5
CCCCCn1c(=O)[nH]c2cc(C(=O)NCCCN3CCCCC3)ccc2c1=O	31%	·	·	·	7	·	·	0.71	3.9
C=CCNC(=O)COC(=O)c1oc2ccccc2c1CSC1CCCCC1	·	1	17	-5.7	-3	7.7	i	0.7	2.4
COc1ccc(NS(=O)(=O)c2ccc(NC(=O)c3ccc(CN4CCOCC4)cc3)cc2)cc1	9%	-13	-16	-5.0	3	2.2	i	0.76	-0.5
CCCC(=O)Nc1nc2nc(-c3ccccc3)cc(=O)n2[nH]1	4%	·	·	·	·	·	·	0.69	1.6
COc1ccc(F)cc1S(=O)(=O)N1CCCN(S(=O)(=O)c2cc(F)ccc2OC)CC1	4%	·	·	·	-1	·	·	0.68	3.3
CC(=O)N(C)C[C@H]1Oc2ncc(-c3ccccc3F)cc2C(=O)N([C@@H](C)CO)C[C@H]1C	·	1	-4	-0.9	·	-2.3	i	·	·
NS(=O)(=O)c1ccc(N2N=C(c3ccccc3)CC2c2cccc(Cl)c2)cc1 (centres undefined)	-5%	2	3	0.0	·	-13	i	0.7	3.5
COCCNc1ncnc2c1ncn2[C@H]1CN(Cc2ccc(-c3ccccc3)cc2)C[C@@H](CO)O1	·	4	0	3.0	·	6.1	i	·	-0.3
Cc1ccc(NC(=O)C2CCCN(c3ncccn3)C2)cc1C (centres undefined)	-4%	9	11	-1.5	-3	1.9	·	0.68	1.2
CCOc1ccccc1OCC(=O)Nc1nc2ccccc2[nH]1	-9%	-10	-5	-3.1	-10	-0.5	i	0.63	-0.8
CC(C)CCNC(=O)c1ccc(CS(=O)(=O)Cc2ccccc2F)o1	-6%	2	3	0.8	-1	1.1	i	0.68	-2.0
Cc1ccc2c(c1C)NC(=O)C21N2CCCC2C(C(=O)c2ccc3ccccc3c2)C12C(=O)Nc1ccccc12 (centres undefined)	5%	-4	-3	11	·	-4.6	i	0.69	1.0
O=C(Cc1ccc(S(=O)(=O)N2CCCC2)s1)Nc1cccc([N+](=O)[O-])c1	·	-14	5	0.2	2	-3.2	i	0.64	12
C=CC[C@@H](CC(=O)OC(C)(C)C)C(=O)OC[C@@H]1CCCN1C(=O)[C@@H](CC=C)CC(=O)N(CCO)Cc1ccccc1	·	-6	-9	-1.9	-9	·	i	·	-3.8
Cc1cc(C)nc(N(C#N)Cc2ccccc2Cl)n1	-2%	2	-3	-2.4	-13	-0.2	i	0.69	3.2
Cc1ccc2c(c1)CCCN2C(=O)c1ccco1	-12%	·	·	·	-1	·	·	0.68	-2.9
Cc1ccc(-c2ocnc2C(=O)N2CCN(C(=O)c3cccs3)CC2)cc1	·	0	-1	-4.3	·	1.3	i	0.69	-4.4
C[C@H]1CN([C@@H](C)CO)C(=O)Cc2cc(N(C)C)ccc2O[C@H]1CN(C)C(=O)Nc1ccc(F)cc1	·	1	-3	1.1	·	-1.2	i	·	·
Cc1ccc2cc(CCNC(=O)C(C)C)c(=O)[nH]c2c1	4%	8	13	1.5	-1	5.3	i	0.7	-4.2
O=C(CNC(=O)c1ccco1)Nc1cc(Cl)ccc1N1CCOCC1	31%	·	·	·	·	·	·	0.7	2.2
Cc1ccc(NC(=O)c2noc3c2CCCCC3)cc1C	3%	·	·	·	7	·	·	0.75	-1.3
CC(Oc1ccc(Br)cc1)C(=O)N1CCc2ccccc21 (centres undefined)	15%	·	·	·	·	·	·	0.72	1.7
CC(=O)c1ccc(N2CCN(c3ccc(C(F)(F)F)cn3)CC2)cc1	10%	·	·	·	-29	·	·	0.68	1.3
COc1cc2c(cc1NC(=O)c1cccc([N+](=O)[O-])c1)oc1ccccc12	-1%	·	·	·	4	·	·	0.74	-5.4
O=C(CNC(=O)Cc1ccccc1)NCc1cccc(C(F)(F)F)c1	·	3	4	0.1	·	-0.9	i	0.69	-1.9
CN1CCN(C(=O)/C(=C/c2ccc([N+](=O)[O-])cc2)NC(=O)c2ccccc2)CC1	·	-2	-3	-4.1	·	-1.1	i	0.71	4.4
CC(C)C(=O)c1cc2c(cc1NC(=O)c1cccs1)OCCO2	-1%	·	·	·	1	·	·	0.71	0.5
COC(=O)C1=CN(c2ccc(OC)cc2OC)C(N)=C(C#N)C1c1ccccc1F (centres undefined)	·	2	-3	-0.1	·	-3.5	i	·	-2.0
N#C[C@H]1[C@H](c2ccc(-c3ccc(F)cc3)cc2)[C@@H](CO)N1C(=O)Cc1ccccc1	·	-3	-18	2.5	·	-1.4	i	·	·
C[C@]12CCC(=O)CC1=CCC1C3CC=C(C#N)[C@@]3(C)CC[C@@]12O (some centres undefined)	3%	-5	2	0.1	0	-2.2	i	0.65	-0.4
O=Nc1c(O)n(Cc2cccc(C(F)(F)F)c2)c2ccccc12	-4%	-57	-82	-18	-11	3.9	i	0.66	-7.7

Remaining list, next part.
SMILES	Vif A3G	Ecoli rRNA inh	Ecoli rRNA inh OD600	Ecoli rRNA inh RFP	ALR H2O2 inh	MLL AF4-AF9 inh	FGF22 binding	E coli growth	HNF4A DNA FP
C[C@H]1CN([C@@H](C)CO)S(=O)(=O)c2ccc(C3=CCCC3)cc2O[C@@H]1CN(C)S(=O)(=O)c1ccc(F)cc1	·	1	-6	1.1	·	2.4	i	·	·
Cc1ccccc1NC(C)C(=O)N/N=C/c1c[nH]c2ccccc12 (centres undefined)	?	-12	-7	1.7	27	3.3	i	·	0.2
CCSc1nc2ccccc2c(=O)n1OCC(=O)OC	2%	·	·	·	0	·	·	0.68	3.4
CO[C@@H]1CN(C)C(=O)c2cc(NC(=O)CC(F)(F)F)ccc2OC[C@@H](C)N(CC2CC2)C[C@@H]1C	·	-1	5	0.4	·	-5.2	i	·	·
CSc1nnc(Nc2ccccc2C)s1	-6%	·	·	·	-7	·	·	0.65	-0.8
O=C(Nc1ccncc1)C1CCCN(S(=O)(=O)c2cccc3cccnc23)C1 (centres undefined)	2%	4	3	-2.3	·	-1.9	i	0.73	-4.7
NS(=O)(=O)c1ccc(NC(=O)CSc2ccccc2)cc1	-9%	3	3	1.4	-8	-2.0	i	0.68	2.2
O=C(CSc1ccc(-c2ccco2)nn1)Nc1ccccc1F	·	-1	3	-1.2	3	1.4	i	0.69	0.8
CO[C@H]1CN(C)C(=O)c2ccc(NC(=O)Nc3ccc(Cl)cc3)cc2OC[C@@H](C)N(C(=O)Nc2c(C)noc2C)C[C@@H]1C	·	1	-15	0.5	·	3.8	i	·	·

Screening results deposited in PubChem BioAssay by several laboratories.

Some of the compounds tested; count on the stated rates, not on these rows.
